TRPML1 agonist: agonists of human TRPML1 channel; Q9GZU1; TRPML1-expressing cells, Ca2+ dye fluorescence, FDSS; host cell line not named in the record; reference of the full effect not given here; activation, % (no concentration beside the values); 0.12% of 410,000 active; in the data active = activation above about 50%; inconclusive = about 30% to 50%; inactive = below about 30%; note: 0% is about no effect; the text of the record puts the active cut at 80%
Target sequence (Q9GZU1 whole entry, looked up): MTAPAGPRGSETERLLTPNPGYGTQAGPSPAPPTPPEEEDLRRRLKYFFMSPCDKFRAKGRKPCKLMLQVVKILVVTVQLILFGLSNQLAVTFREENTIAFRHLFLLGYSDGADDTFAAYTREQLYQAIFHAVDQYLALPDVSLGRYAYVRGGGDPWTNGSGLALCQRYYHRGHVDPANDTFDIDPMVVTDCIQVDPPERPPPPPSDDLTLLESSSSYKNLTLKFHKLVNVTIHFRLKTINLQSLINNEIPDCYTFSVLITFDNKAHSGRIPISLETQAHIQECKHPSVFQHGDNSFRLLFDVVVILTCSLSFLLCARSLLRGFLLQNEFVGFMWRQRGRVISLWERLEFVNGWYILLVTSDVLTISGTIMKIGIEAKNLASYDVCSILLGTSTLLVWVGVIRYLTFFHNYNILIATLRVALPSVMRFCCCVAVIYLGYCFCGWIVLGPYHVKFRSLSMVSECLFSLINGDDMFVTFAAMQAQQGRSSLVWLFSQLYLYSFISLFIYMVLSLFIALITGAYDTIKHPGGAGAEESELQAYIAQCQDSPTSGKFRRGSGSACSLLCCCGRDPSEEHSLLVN
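Calcium fluorescence on an FDSS kinetic reader gave the read-out. Tet-induced TRPML1-DL cells were plated overnight, dye-loaded (Ca8 with quencher, 45-90 min, room temperature, dark), then read 110 s after compound addition, and again 110 s after 4uM final 54-4 (EC80).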
Six1-Eya2 inh: inhibitors of human Six1/Eya2 interaction. Q15475+O00167. AlphaScreen GST-Six1/His-Eya2 binding, biochemical; hits give low values; control for the full effect not named in the record. activity change, % (test concentration not listed). 0.56% of 360,000 active. AID 651725; in the data active = activity change below about -65%; inconclusive = about -30% to -65%; inactive = above about -30%; note: % is set by controls: 0 for no effect and ±100 for the full control effect; compound concentration not given in the record
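AlphaScreen with GST-Six1 and His-Eya2 (5X mix: 250 nM and 500 nM), glutathione donor and nickel acceptor beads; buffer 50 mM Tris pH 8.0, 300 mM NaCl, 1 mM TCEP; 1 h at 37 C in the dark.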
PINK1 expr mod: changes PINK1 expression; Potency, µM (series often up to 76.6 µM), inactives show top-dose activation (PINK1 increase), usual class: activators; 0.2% of 410,000 active; AID 624263; PINK1 immunofluorescence, high-content cytometry, 24 h; active = well fitted activation curve with a large enough effect; inconclusive = small, poorly fitted or top-dose-only effect; inactive = flat fitted curve, though single readings scatter; cell line not stated here;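 note: potency is the fitted concentration of half-maximal effect; % of control where 0% means no effect; nearly all actives have a fitted effect of over 65% in size; a mitochondrial uncoupler was the plate control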
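Fluorescence from anti-PINK1 antibody, together with nuclear and cell stains, was scanned on a laser-scanning cytometer. Before staining, stable-line cells were incubated 24 hours with compounds at 5 concentrations; primary antibody 12 h at 10 degrees C.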
TRPML1 inh: human mucolipin-1 channel inhibition | TRPML1-inducible cells, Ca2+ dye fluorescence, FDSS; hits give low values; inhibition of EC80 agonist-evoked calcium signal | 0.02% of 390,000 active | activity change, negative = inhibition, % (concentration not given with the values) | Q9GZU1 | AID 624415; in the data active means activity change below about -50%; inconclusive means about -30% to -50%; inactive means above about -30%;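 note: stimulus is agonist 54-4 at its EC80 concentration; % is set by controls: 0 for no effect and ±100 for the full control effect; compound concentration not given in the record; the text of the record puts the active cut at -80%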
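Tet-induced TRPML1-DL cells loaded with Ca8 no-wash calcium dye were read kinetically on FDSS. Compound addition was followed by EC80 agonist 54-4 (4 uM final); inhibition was read over 110 s.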
D2 PAM: human D2 receptor positive allosteric modulation; P14416; DiscoveRx D2 beta-arrestin cells, luminescence, 90 min; 100% = 57 uM dopamine signal; potentiation, % (test concentration not listed); 0.23% of 360,000 active; AID 624464; active = potentiation of 50% or more; inconclusive = 30% to 50%; inactive = 30% or less;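 note: compound concentration not given in the record; tested on top of an EC20 dose of dopamine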
Target sequence (P14416 whole entry, looked up): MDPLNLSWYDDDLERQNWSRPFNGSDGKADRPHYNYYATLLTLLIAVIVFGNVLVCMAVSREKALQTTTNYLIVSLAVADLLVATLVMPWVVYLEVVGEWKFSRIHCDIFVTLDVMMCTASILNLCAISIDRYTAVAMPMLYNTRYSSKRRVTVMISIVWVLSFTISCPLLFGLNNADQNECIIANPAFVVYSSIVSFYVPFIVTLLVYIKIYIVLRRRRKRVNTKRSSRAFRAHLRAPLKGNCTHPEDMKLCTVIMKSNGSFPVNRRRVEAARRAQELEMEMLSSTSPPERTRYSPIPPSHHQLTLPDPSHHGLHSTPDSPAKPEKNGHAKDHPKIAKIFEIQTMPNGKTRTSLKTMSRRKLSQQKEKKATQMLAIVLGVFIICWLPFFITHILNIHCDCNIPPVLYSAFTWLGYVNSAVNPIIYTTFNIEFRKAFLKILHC
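PathHunter D2 cells, attached overnight at 37 deg C, received compound in DMSO plus dopamine at EC20 (50 nM final) for 90 min at 37 deg C. Beta-arrestin recruitment was read as luminescence after 1 h with detection reagent at ambient temperature.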
D2 ag: agonists of human D2 dopamine receptor (beta-arrestin); activation, % (no concentration beside the values); P14416; DiscoveRx PathHunter D2 beta-arrestin, luminescence, 90 min; 100% = 57 uM dopamine signal; AID 624465; 0.084% of 360,000 active; in the data active = activation above about 40%; inconclusive = about 15% to 40%; inactive = below about 15%; note: compound concentration not given in the record; the text of the record calls up to 30% inactive
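Agonist mode: compounds alone added to overnight-plated D2 PathHunter cells for 90 min at 37 C, with 57 uM final dopamine (EC100) defining full response. Beta-arrestin recruitment detected by chemiluminescent reagent, read after 1 h at ambient temperature.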
Active calls of the source: *; ? = inconclusive; nt = not tested or not shown; & = joins results of further samples; [ ] = dose if it differs, or a comment.

SMILES | TRPML1 agonist | Six1-Eya2 inh | PINK1 expr mod | TRPML1 inh | D2 PAM | D2 ag
c1ccc(Cn2c(CSc3nnnn3-c3ccccc3)nc3ccccc32)cc1 | 1.2 | 8 | 9.9%[38.3 µM] | 10 | 3 | -3.2
CC(SC1=NCCN1S(=O)(=O)c1ccc(F)cc1)c1ccccc1 (configuration not stated) | 3.3 | 13 | 1.7% | 44 | 5 | 3.5
Cc1ccc(S(=O)(=O)N2CCSC2)cc1C | 1.4 | -9 | 2.4%[38.3 µM] | -4 | -5 | 3.2
O=c1cc(-c2ccc(O)cc2)oc2c([C@@H]3O[C@H](CO)[C@@H](O)[C@H](O)[C@H]3O)c(O)c([C@@H]3O[C@H](CO)[C@@H](O)[C@H](O)[C@H]3O)c(O)c12 | -0.1 | 2 | 1.7% | -7 | -1 | -2.3
CC(=O)N(C)c1ccc(NC(=O)Cc2cccs2)cc1 | -0.4 | -6 | -0.6% | 28 | -1 | -7.3
COc1ccccc1N1CCN(CC(O)COc2ccc(C)cc2C(C)(C)C)CC1 (configuration not stated) | 2.7 | nt | 20% | 30 | nt | nt
CCN1CCN(C(=O)C2CCC(CNS(=O)(=O)c3ccccc3)CC2)CC1 (configuration not stated) | 0.7 | 6 | nt | -10 | -2 | -2.0
O=C(Cc1cccs1)NC1CC(=O)N(c2ccc(Cl)cc2)C1 (configuration not stated) | -0.3 | nt | 1.3% | 3 | nt | nt
CCOc1ncccc1C(=O)OCc1cc(=O)oc2c(C)c(C)ccc12 | 3.9 | 6 | 14% | 11 | -16 | 1.2
CC(C)c1ccc(S(=O)(=O)NC2CCCC2)cc1 | 3.3 | 2 | 3.3% | 1 | -14 | 0.6
COC(=O)c1sccc1NC(=O)CSCCc1ccccn1 | -0.6 | -8 | 1.5% | 22 | -1 | 0.2
CCOc1ccc(OCCC(=O)OCC(=O)Nc2ccc(N3CCOCC3)cc2)cc1 | -0.7 | 0 | 1.9% | -8 | -17 | -2.1
COC(=O)c1cc2ccccc2c(-c2c(O)ccc3ccccc23)c1O | 1.0 | -16 | -2.8% | 1 | -5 | 0.0
COc1ccc(CCCc2nnc(SCC(=O)Nc3ccccc3F)o2)cc1C | 1.7 | nt | 1.2% | 17 | nt | nt
O=Cc1ccc2noc(-c3ccc(F)cc3)c2c1 | 5.1 | -10 | 0.1% | -14 | ? | 10
CC(=O)N[C@@H](C)c1nc2ccccc2n1CCCN1CCN(c2nc(-c3ccc(C)cc3)cs2)CC1 | -0.7 | -12 | 2.8% | -1 | -12 | -1.3
Cc1ccc(N(C(=O)Cn2nnc3ccccc32)C(C(=O)NCc2ccco2)c2ccc(C)o2)cc1 (configuration not stated) | -0.5 | 0 | 4.1% | -4 | 0 | -4.3
Cc1oc(-c2ccc(C(=O)Nc3ccc(F)cc3F)cc2)nc1COc1ccccc1 | 0.0 | nt | -0.3% | 7 | nt | nt
CC(C#N)Sc1nnc(Nc2ccccc2)s1 (configuration not stated) | 0.0 | -1 | 2.2% | 7 | -3 | 0.7
CC(C)C[C@@H](CN1CCC[C@@H]1CN1C(=S)NC[C@@H]1Cc1ccccc1)N1C[C@H](Cc2ccc(O)cc2)N(CCc2ccccc2)C1=S | 0.5 | -10 | 4.0% | -11 | -6 | -3.1
Cc1cccn2c(Nc3ccccc3)c(-c3cccs3)nc12 | 0.7 | nt | 6.4% | 1 | nt | nt
O=C(NCc1n[nH]c(=S)n1-c1cccc(C(F)(F)F)c1)c1ccco1 | 0.5 | 0 | 0.2% | 16 | -6 | -3.3
CCOC(=O)Cn1cc(/C=C(\C#N)C(=O)N2CCOCC2)c2ccccc21 | -0.7 | 1 | -0.7% | 5 | -4 | -1.1
Clc1cccc(OCCN2CCCC2)c1 | 0.7 | 17 | -0.8% | -3 | -8 | 1.8
O=[N+]([O-])c1cc(-c2cnc3ccccc3n2)ccc1Oc1ccc(Cl)cc1 | 0.6 | -23 | 4.3% | 66 | -4 | 0.5

Additional compounds
SMILES | TRPML1 agonist | Six1-Eya2 inh | PINK1 expr mod | TRPML1 inh | D2 PAM | D2 ag
CCOC(=O)c1c(C)c(C(=O)NCc2cccs2)c(C)n1C | 0.4 | -2 | 1.5%[38.3 µM] | -57* | -20 | -4.1
O=C(C1=C[C@H](c2coc3ccccc3c2=O)C[C@H](OCCCCO)O1)N1CCOCC1 | -0.3 | 1 | -0.9% | 13 | -13 | -3.3
N#Cc1cn(CCOc2ccccc2F)c2ccccc12 | 1.0 | 15 | -1.2% | -10 | 0 | -2.9
CCC(=O)Nc1ccc(C(=O)n2nc(C)cc2C)cc1 | 0.4 | -12 | 2.7% | 50 | 1 | -2.9
COc1ccc(N2CCN(C(=O)c3sc4nc5n(c(=O)c4c3C)CCC5)CC2)cc1 | 0.2 | nt | 1.4% | 8 | nt | nt
Cc1nnc(N2CCCC(C(=O)NCc3cccc(F)c3)C2)c2nn(-c3ccccc3)c(C)c12 (configuration not stated) | 2.8 | -1 | -0.7% | 69 | 1 | 8.6
CSc1cccc(N2CC(C(=O)NCCN3C(=O)S/C(=C\c4cccnc4)C3=O)CC2=O)c1 (configuration not stated) | -0.7 | -4 | -2.5% | 11 | -11 | -1.3
CSc1ccc(OC2(C)CCN(Cc3ccc(C(C)C)cc3)C2)cc1 (configuration not stated) | -0.9 | -18 | ? | nt | -10 | -1.7
Cc1ccc(S(=O)(=O)Nc2nc3ccccc3s2)cc1 | 4.7 | 2 | -0.1% | -2 | -1 | 1.7
COc1cccc2cc(-c3ccnc(N)n3)oc12 | -0.4 | -1 | -1.0% | -21 | 2 | -1.6
COc1ccc(OC)c(S(=O)(=O)NCCCN2CCCC2=O)c1 | 0.8 | 0 | 2.9% | 48 | -8 | -5.5
CN(CC(=O)Nc1cccc(F)c1)C(=O)c1ccc(-n2cncn2)c([N+](=O)[O-])c1 | -0.5 | 3 | -0.2% | 0 | 27 | 1.1
COc1ccccc1CNS(=O)(=O)c1c(C)nc2scc(C)n2c1=O | -0.3&-0.1 | 2 | 1.2%&-0.5% | -9&-21 | -11 | -1.0
Cc1ccccc1-n1c(=O)n(Cc2ccc(C(=O)O)cc2)c(=O)c2[nH]cnc21 | -0.5 | -2 | 2.4% | 13 | -5 | 2.7
CC(=O)Cc1nsc(NC(=O)c2ccc(Br)o2)n1 | -0.2 | -1 | -0.6%[38.3 µM] | -13 | 0 | -1.3
Cc1ccccc1CN1CCN(C(=O)c2ccco2)CC1 | -1.7 | -2 | -1.8% | 17 | 26 | 47*
COc1ccc(Cl)cc1NC(=S)NCCc1c[nH]c2ccccc12 | 1.2 | -23 | 3.3%[38.3 µM] | 8 | -18 | 1.4
Cc1c(C(=O)NCc2ccccn2)sc2nc(-c3ccccc3)cn12 | 1.0 | -6 | 0.9% | 36 | -10 | -2.1
C[C@H]1CN([C@@H](C)CO)C(=O)CCCn2nncc2CO[C@H]1CN(C)S(=O)(=O)c1ccc(Cl)cc1 | 0.1 | -4 | -0.1% | -8 | -2 | -5.2
CCOc1ccc(C(=O)NCC2(c3ccccc3)CCOCC2)cc1 | 0.7 | -1 | -0.8% | -10 | -8 | -1.0
C/C(=N\NS(=O)(=O)c1ccc(Br)cc1)c1ccncc1 | -0.5 | -1 | 1.6% | 31 | -12 | -2.5
CCC(CC)C(=O)Nc1cc(OC)c(OC)cc1C(=O)O | -0.8 | 6 | 1.6% | 28 | 7 | 0.4
C=C1c2cc(C)ccc2NC(=O)N1c1ccc(C)cc1 | 0.9 | 5 | -0.8% | 47 | -28 | -6.5
CCSc1nnc([C@H](C)NC(=O)OC(C)(C)C)o1 | -0.1 | 8 | ? | -9 | -6 | -0.8
O=C(CN1CCN(C(=O)C2COc3ccccc3O2)CC1)Nc1ccccc1 (configuration not stated) | 1.5 | 3 | -0.7% | -4 | -8 | -1.4

Full records from above. Values in the order: TRPML1 agonist | Six1-Eya2 inh | PINK1 expr mod | TRPML1 inh | D2 PAM | D2 ag
Entry for Cc1ccccc1CN1CCN(C(=O)c2ccco2)CC1 : -1.7 | -2 | -1.8% | 17 | 26 | 47*
Entry for Cc1ccccc1-n1c(=O)n(Cc2ccc(C(=O)O)cc2)c(=O)c2[nH]cnc21 : -0.5 | -2 | 2.4% | 13 | -5 | 2.7
Entry for CCSc1nnc([C@H](C)NC(=O)OC(C)(C)C)o1 : -0.1 | 8 | ? | -9 | -6 | -0.8
Entry for COc1ccc(N2CCN(C(=O)c3sc4nc5n(c(=O)c4c3C)CCC5)CC2)cc1 : 0.2 | nt | 1.4% | 8 | nt | nt
Entry for O=C(CN1CCN(C(=O)C2COc3ccccc3O2)CC1)Nc1ccccc1 (configuration not stated) : 1.5 | 3 | -0.7% | -4 | -8 | -1.4

The list continues.
SMILES | TRPML1 agonist | Six1-Eya2 inh | PINK1 expr mod | TRPML1 inh | D2 PAM | D2 ag
Cc1nn(CC(=O)NCCCN2CCC(N3CCCCC3)CC2)c(=O)c2cc(-c3ccccc3)nn12 | -0.7 | 0 | 8.8% | 3 | -7 | -4.6
COC(=O)C(NS(C)(=O)=O)(c1c(C)[nH]c2ccccc12)C(F)(F)F (configuration not stated) | 0.0 | -2 | 6.6% | 8 | -28 | -3.9
CCc1nc2ccc(C(=O)NCCOc3ccc(OC)cc3)cn2c1N(CCN(C)C)CC1CC1 | 0.0 | -8 | 1.2% | nt | -9 | -7.4
Cn1c(=O)n(C)c2cc(NS(=O)(=O)c3cccs3)ccc21 | 0.4 | 7 | 1.9% | -13 | -4 | 1.6
Cn1c(=O)n(CC(=O)O)c(=O)c2c1nc1n2CCCN1c1ccc(Cl)cc1 | -0.7 | nt | 1.7% | -7 | nt | nt
Cc1ccc(S(=O)(=O)c2cn(CC(=O)Nc3ccc4c(c3)OCO4)c3ccc(F)cc3c2=O)cc1 | -0.1 | nt | 1.5% | 2 | nt | nt
Cc1ccc(-c2nc3sc(CCNS(=O)(=O)c4cc(F)ccc4F)c(C)n3n2)cc1 | 3.6 | nt | -0.4% | 8 | nt | nt
COc1ccc(/C=N/NC(=O)c2ccco2)cc1Cn1nc(C)c([N+](=O)[O-])c1C | 2.5 | 9 | 1.0% | -6 | -3 | 4.2
Cc1ccc(N(CC(=O)N2CCCCC2)S(=O)(=O)c2ccc(C)cc2)cc1 | -1.1 | 1 | 1.1% | -13 | -7 | 2.3
CCCCCC1C/C(=N\O)C=C(C)C1C(=O)OC (configuration not stated) | 1.0 | -4 | 0.6% | -6 | 3 | 2.7
CC(=O)c1cccc(NC(=S)NC(=O)Cc2ccccc2)c1 | 0.8 | -10 | 3.8% | 11 | 1 | -5.2
COc1cccc(/C=C/C(=O)OCC(=O)Nc2ccc3[nH]c(=O)[nH]c3c2)c1OC | -0.1 | 4 | -3.5% | 2 | -5 | -6.7
Cc1csc2nc(COC(=O)c3ccc(NC(=O)COc4ccccc4F)cc3)cc(=O)n12 | 1.7 | nt | 0.3% | -14 | nt | nt
CCOc1cccc(C(=O)N/N=C/c2coc3ccccc3c2=O)c1 | 0.4 | 5 | 0.0% | -7 | 4 | 5.3
CCOC(=O)N1CCN(c2ccc([N+](=O)[O-])cc2F)CC1C (configuration not stated) | 2.2 | 3 | 1.2% | -4 | 5 | 2.2
